HPGD inh = HPGD (human) dehydrogenase inhibition | purified HPGD, NADH fluorescence kinetic, PGE2 substrate | 4.3% of 150,000 active | P15428 | AID 894 | Potency, µM, for the others: at the highest dose activity change, negative = inhibition, actives largely listed as inhibitors; active = well fitted inhibition curve with a large enough effect (not every such curve was filed as active); inconclusive = small, poorly fitted or top-dose-only effect, or another doubt; inactive = no such curve, though single readings can be large or run the other way;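 note: top concentration of the series not given in the record; plate controls included wells without enzyme; inactives centre near -10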
Target sequence (P15428 whole entry, looked up): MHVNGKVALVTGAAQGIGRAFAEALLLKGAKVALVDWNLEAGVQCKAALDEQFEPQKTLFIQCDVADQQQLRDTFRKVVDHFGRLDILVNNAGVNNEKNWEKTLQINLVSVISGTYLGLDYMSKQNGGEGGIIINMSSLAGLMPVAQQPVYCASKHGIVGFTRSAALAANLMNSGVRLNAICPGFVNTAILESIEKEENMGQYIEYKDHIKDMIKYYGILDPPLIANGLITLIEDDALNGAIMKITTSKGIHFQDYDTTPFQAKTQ
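NADH formation kinetics: reaction with 30 uM PGE2 and 1 mM NAD+ (final), 20 nM enzyme, Tris-HCl pH 8 with Tween 20, after 15 min compound preincubation at room temperature. Fluorescence change, last versus first of five reads.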
Active calls of the source: *; u = inconclusive. % is set by controls: 0 for no effect and ±100 for the full control effect; potency is the fitted concentration of half-maximal effect. This is a subset (hit frequency here may not be typical).

SMILES | HPGD inh
COc1ccc([N+](=O)[O-])cc1NC(=S)NC(NC(=O)C(c1ccccc1)c1ccccc1)C(Cl)(Cl)Cl (stereo unspecified) | -10%
Cc1ccc(C)c2nc3sc(C(=O)N4CCCc5ccccc54)c(N)c3cc12 | -15%
COc1cc(NC(=O)Cn2c(C)cc3ccccc3c2=O)cc(OC)c1OC | -25%
CN1CCN(C(=O)c2cc3c(s2)-c2ccccc2S(=O)(=O)C3)CC1 | u
CCn1c(NCc2ccccn2)nc2ccccc21 | -4%
CCOC(=O)c1c(C)[nH]c(C(=O)OCCOc2ccccc2C)c1C | -16%
CCC(CO)n1cnnc1-c1ccncc1 (stereo unspecified) | -6%
CCOC(=O)CSc1[nH]c(=O)cc(C)c1C#N | -1%
COc1ccccc1[C@H]1C(c2cccc(Cl)c2)=NN(c2ccccc2)[C@@H]1CO | u
CN(C)S(=O)(=O)c1ccc(C(=O)Nc2nc(-c3cc4ccccc4o3)cs2)cc1 | u
Cc1ccc(S(=O)(=O)CCC(=O)Nc2ccc3nc(C)sc3c2)cc1 | -2%
COc1ccc(N2CCN(Cc3nc4c(c(=O)n(C)c(=O)n4C)n3CC(C)=O)CC2)cc1 | -3%
O=C(CSc1nnc(CN2CCOCC2)n1-c1ccccc1)N1CCc2ccccc21 | 0%
OC1CCC2Cc3ccccc3N=C12 (stereo unspecified) | -5%
Cc1ccc(CSc2nnc(-c3ccco3)o2)cc1 | 25µM*
CCOC(=O)N1CCN(C(=O)Nc2sc3nc4n(c(=O)c3c2C)CCC(C)CC4)CC1 (stereo unspecified) | -22%
COc1cccc(C2NC(=O)NC(C)=C2C(=O)Nc2ccccc2C)c1 (stereo unspecified) | -5%
O=C(CSc1nnnn1-c1ccc(Cl)cc1)NC(=O)Nc1ccc2c(c1)OCCO2 | -11%
CCOc1ccc2c3c(c(=O)oc2c1OCC)CCCC3 | -24%
O=C(Nc1ccc(Cl)cc1C(=O)NCc1cccnc1)c1ccc(Cl)cc1Cl | -9%
O=C(N/N=C/C1=C(N2CCOCC2)C(=C\c2ccccc2)/CC1)Nc1ccccc1 | -18%
CC(C)NC(=O)CCS(=O)(=O)c1cccc2nonc12 | -5%
Cc1cc(O)c(C2=Nc3ccccc3SC(c3ccc(Cl)cc3)C2)c(=O)o1 (stereo unspecified) | -4%
CCOC(=O)c1ccc2c(c1)N(CC(=O)N1CCCCC1)C(=O)C(C)(C)O2 | -6%
CC(=O)c1cccc(NC(=O)N2CCCC2C(=O)NC2CCCCC2)c1 (stereo unspecified) | -18%
(listing goes on)
SMILES | HPGD inh
CCOC(=O)c1cc2sc(C)cc2n1CCCN1C(=O)c2ccccc2C1=O | -3%
Cc1cccc(C)c1NC(=S)Nc1c(C)n(C)n(-c2ccccc2)c1=O | -8%
COc1ccc(C2C(C(=O)c3ccccc3)=C(C)Nc3nc4ccccc4n32)c(OC)c1 (stereo unspecified) | -10%
CCOc1ccc(-c2nnn(CC(=O)NCc3ccc(OC)cc3)n2)cc1OCC | -7%
Cc1cc(=O)[nH]c(N/N=C/c2sccc2C)n1 | 40µM*
CC(=O)Nc1cc2ccccc2oc1=O | u
CCn1cc(Br)c(-c2nc3ccccc3c(=O)n2N)n1 | -7%
COc1ccccc1CNC(=O)c1ccc(-c2ccccc2C(F)(F)F)o1 | -12%
COc1ccc(-c2cc(C(F)(F)F)nc(N3CCOCC3)n2)cc1OC | u
CC1(C)CC(=O)c2cc(C(=O)Nn3cnnc3)c(=O)n(-c3ccccc3)c2C1 | -15%
O=C(NCCc1ccccc1)c1ccc2c(c1)N(Cc1ccccc1)C(=O)CS2=O (stereo unspecified) | -8%
COc1ccccc1/C=C\C(=O)O | -4%
COCCN1Cc2cccc(C(=O)NCc3ccccn3)c2C1=O | -5%
Fc1cccc(CSc2nc3ncccc3[nH]2)c1 | 18µM*
Cc1nc(SCC(=O)NC(=O)NCc2ccccc2)nc(C)c1C | -17%
Cc1cc(Br)c2c(c1)=C(c1sc(N3CCCCCC3)nc1O)C(=O)N=2 | -3%
CC(C(=O)NCc1cccs1)n1cccc1 (stereo unspecified) | -7%
CSc1ccccc1NC(=O)CN(C)Cc1ccc(Br)cc1 | -4%
CCC1=C(OC(=O)N(CC)CC)N2C(=O)OC(=NCCc3c[nH]c4ccccc34)[C@]2(Cc2ccccc2)[C@H]2C1=CC[C@H]1C(=O)NC(=O)[C@H]12 | -11%
Cc1ccccc1NS(=O)(=O)c1cc(S(C)(=O)=O)ccc1Cl | -2%
COC(=O)[C@@]1(Cc2ccc(OC)cc2)[C@H]2c3cc(C(=O)N(C)C)n(Cc4ccc(S(C)(=O)=O)cc4)c3C[C@H]2CN1C(=O)c1ccccc1 | -6%
CCOc1c(C(N)=O)cc([N+](=O)[O-])cc1[N+](=O)[O-] | -11%
CCN(CC)CCCCn1c(-c2ccccc2)nc2c(NCCOC)nc(C)nc21 | u
CCOc1ccccc1NC(=O)CSc1ncnc2c1oc1ccccc12 | -8%
CCCCCCCCCCCCCCCCCC(=O)NCCc1ccc(O)c(O)c1 | 1%
The list continues.
SMILES | HPGD inh
COc1cccc(C(=O)N/N=C/c2cn[nH]c2-c2ccc(OC)cc2OC)c1 | -16%
CCCOc1ccc(OCCOCCNCc2ccccc2)cc1 | 0%
Cc1ccc(C(c2sc3nc(C)nn3c2O)N2CCN(C(=O)c3ccco3)CC2)cc1 (stereo unspecified) | -9%
O=C(NCc1ccccc1)C1CCN(S(=O)(=O)c2cccc3cccnc23)CC1 | -6%
COCc1cc(=O)n2[nH]c(C(F)(F)F)nc2n1 | -3%
CC(C)OCCCNC(=O)c1c(N)n(/N=C/c2cccs2)c2nc3ccccc3nc12 | u
COc1ccc(CN2C(=S)NC(C)(C)CC2(C)O)cc1 (stereo unspecified) | -6%
CCOC(=O)CSc1ncnc2c1nnn2-c1ccc(F)cc1 | u
COc1ccc(C(C)NC(=O)c2cccc([N+](=O)[O-])c2)cc1OC (stereo unspecified) | 0%
CSc1nc2ccc(NC(=O)C3CC(=O)N(Cc4ccco4)C3)cc2s1 (stereo unspecified) | -18%
O=C(c1ccc([N+](=O)[O-])cc1)N(Cc1ccc(Br)cc1)N1C(=O)CCCC1=O | -9%
CCOC(=O)c1cccnc1SCc1cc(=O)n2ccccc2n1 | -12%
CCC(C)NC(=O)CSC1=Nc2ccccc2C2=NC(CCC(=O)NCc3ccco3)C(=O)N12 (stereo unspecified) | -21%
O=C1[C@@H]2CSCN2C(=O)CN1CCc1cccc(F)c1 | -3%
CCc1ccc(OCC(O)CNC(C)(C)C)cc1 (stereo unspecified) | -14%
Cc1occc1C(=O)N/N=C/c1c[nH]c2ccccc12 | -9%
COc1ccc(/C=C/C(=O)c2cc(Br)ccc2OC(=O)c2ccco2)cc1OC | -17%
CC(C)CNC(=O)c1cc(-c2ccc(Cl)c(Cl)c2)on1 | -11%
Fc1ccc(CSc2nncn2NCc2ccccc2)cc1 | 2%
COc1cccc(-c2nnc(NC(=O)c3ccc4ncsc4c3)o2)c1 | -26%
Cc1ccc(NC(=O)/C=C/c2ccc3c(c2)OCO3)nc1 | u
CCc1ccc(NC(=O)C(C)OC(=O)c2ccc(NS(=O)(=O)c3ccc(C)c([N+](=O)[O-])c3)cc2)cc1 (stereo unspecified) | -14%
COc1ccc(/C=C/C(=O)Nc2ccc3c(c2)CCC3)cc1OC | -17%
Cc1cc(C)cc(NC(=S)Nc2ccccn2)c1 | -11%
CNc1cc(C)nc(-n2nc(C)cc2C)n1 | -14%

No new results follow: 2 of the compounds above.
SMILES | HPGD inh
Cc1cc(C)cc(NC(=S)Nc2ccccn2)c1 | -11%
CNc1cc(C)nc(-n2nc(C)cc2C)n1 | -14%

Part of the list above in order of length of the SMILES, largest number first:
SMILES | HPGD inh
CCC1=C(OC(=O)N(CC)CC)N2C(=O)OC(=NCCc3c[nH]c4ccccc34)[C@]2(Cc2ccccc2)[C@H]2C1=CC[C@H]1C(=O)NC(=O)[C@H]12 | -11%
COC(=O)[C@@]1(Cc2ccc(OC)cc2)[C@H]2c3cc(C(=O)N(C)C)n(Cc4ccc(S(C)(=O)=O)cc4)c3C[C@H]2CN1C(=O)c1ccccc1 | -6%
O=C(c1ccc([N+](=O)[O-])cc1)N(Cc1ccc(Br)cc1)N1C(=O)CCCC1=O | -9%
COc1ccccc1[C@H]1C(c2cccc(Cl)c2)=NN(c2ccccc2)[C@@H]1CO | u
Cc1ccc(C(c2sc3nc(C)nn3c2O)N2CCN(C(=O)c3ccco3)CC2)cc1 (stereo unspecified) | -9%
CC(C)OCCCNC(=O)c1c(N)n(/N=C/c2cccs2)c2nc3ccccc3nc12 | u
O=C(CSc1nnnn1-c1ccc(Cl)cc1)NC(=O)Nc1ccc2c(c1)OCCO2 | -11%
O=C(NCCc1ccccc1)c1ccc2c(c1)N(Cc1ccccc1)C(=O)CS2=O (stereo unspecified) | -8%
COc1ccc(C(C)NC(=O)c2cccc([N+](=O)[O-])c2)cc1OC (stereo unspecified) | 0%
Cc1cccc(C)c1NC(=S)Nc1c(C)n(C)n(-c2ccccc2)c1=O | -8%
Cc1ccc(S(=O)(=O)CCC(=O)Nc2ccc3nc(C)sc3c2)cc1 | -2%
COc1ccc(-c2cc(C(F)(F)F)nc(N3CCOCC3)n2)cc1OC | u
CCOC(=O)c1c(C)[nH]c(C(=O)OCCOc2ccccc2C)c1C | -16%
COc1cccc(-c2nnc(NC(=O)c3ccc4ncsc4c3)o2)c1 | -26%
COc1ccc(/C=C/C(=O)Nc2ccc3c(c2)CCC3)cc1OC | -17%
CCCCCCCCCCCCCCCCCC(=O)NCCc1ccc(O)c(O)c1 | 1%
Cc1nc(SCC(=O)NC(=O)NCc2ccccc2)nc(C)c1C | -17%
Cc1ccc(NC(=O)/C=C/c2ccc3c(c2)OCO3)nc1 | u
COc1ccc(CN2C(=S)NC(C)(C)CC2(C)O)cc1 (stereo unspecified) | -6%
CSc1ccccc1NC(=O)CN(C)Cc1ccc(Br)cc1 | -4%
Cc1cc(=O)[nH]c(N/N=C/c2sccc2C)n1 | 40µM*
CCOC(=O)CSc1[nH]c(=O)cc(C)c1C#N | -1%
CCCOc1ccc(OCCOCCNCc2ccccc2)cc1 | 0%
CCc1ccc(OCC(O)CNC(C)(C)C)cc1 (stereo unspecified) | -14%
CNc1cc(C)nc(-n2nc(C)cc2C)n1 | -14%
COc1ccccc1/C=C\C(=O)O | -4%

Additional records.
SMILES | HPGD inh
COCCCn1c(SCC(=O)Nc2nc3ccccc3s2)nnc1-c1ccoc1C | -3%
Cc1ccc(OCC(=O)N(Cc2ccccc2)C(C)C)c([N+](=O)[O-])n1 | 3%
CCCCc1ccc(NC(=O)C2CCCO2)cc1 (stereo unspecified) | 16µM*
c1ccc2nc(-c3ccncc3)ccc2c1 | -14%
CN1C(=O)C(=O)N(CC(=O)N2CCc3ccccc32)C1=O | -20%
COc1ccccc1NC(=O)C1(C)Cc2ccccc2C(=O)O1 (stereo unspecified) | -6%
Cc1ccc(SCC(=O)Nc2ccc(F)cc2[N+](=O)[O-])cc1C | -13%
S=C1NCN(C2CCCCC2)CN1Cc1ccccc1 | 3%
CCOC(=O)c1c(C)[nH]c(C)c1C(=O)CSc1nc2ccccc2c(=O)n1-c1ccc(Cl)cc1 | -6%
Cc1cc(C)cc(OCc2ccc(C(=O)N3N=C(C(F)F)CC3(O)C(F)F)o2)c1 (stereo unspecified) | -10%
Cc1c(NC(=O)OCc2ccccc2)c(=O)n(-c2ccccc2)n1C | -5%
O=C(CSc1ncc(-c2ccccc2)n1-c1ccccc1)NCc1ccco1 | -29%
CCOc1ccc(NC2c3ccccc3C(=O)N2Cc2ccco2)cc1 (stereo unspecified) | -21%
CN1C(=O)C(O)(CC(=O)/C=C/C=C/c2ccccc2)c2ccccc21 (stereo unspecified) | u
CC(C)C[C@@H](CC(=O)N[C@@H](CCC(=O)O)CC(=O)O)NC(=O)[C@@H]1CNCC[C@H]1NC(=O)C[C@@H](NC(=O)C[C@H](CO)NC(=O)[C@@H]1CCCC[C@H]1N)C(C)C | -3%
COCc1cc(C2C(C(=O)c3ccco3)=C(O)C(=O)N2CCOCCO)ccc1O (stereo unspecified) | -4%
Cc1cc(C)nc(NC(=O)CSc2ccccn2)n1 | 2%
O=C(N/N=C/c1c(Cl)cccc1Cl)c1n[nH]c2c1CCCC2 | 4µM*
CCn1c(C2CC(=O)N(Cc3ccccc3)C2)nc2ccccc21 (stereo unspecified) | -6%
C=CC12C=CC=CN1C(C(=O)OC)=C(C(=O)OC)C(C(=O)OC)=C2C(=O)OC (stereo unspecified) | -8%
CCc1cccc(Oc2nn[nH]n2)c1 | 1%
Cc1ccc(Sc2c(C(=O)Nc3ccc(F)cc3F)c(C(F)(F)F)nn2C)cc1 | -13%
O=C1OCc2cc(NC(=O)C3COc4ccccc4O3)ccc21 (stereo unspecified) | -10%
CC(=O)NCc1cccc(CNC(C)=O)n1 | -4%
O=C(COC(=O)C(O)c1ccccc1)NC12CC3CC(CC(C3)C1)C2 (stereo unspecified) | -9%
Clc1ccc2[nH]cc(-c3nnnn3-c3ccccc3)c2c1 | -17%
O=C1CN(C(=O)c2cc([N+](=O)[O-])ccc2Cl)C(c2ccccc2)c2cc(F)ccc2N1 (stereo unspecified) | -5%
CCC(c1nnnn1C(C)(C)C)N(Cc1ccco1)Cc1cc2cccc(C)c2[nH]c1=O (stereo unspecified) | 2%
COC(=O)c1cc(NC(=O)Nc2ccccc2OC)cc(C(=O)OC)c1 | u

Screening results as filed in PubChem.
